From PubChem BioAssay
PINK1 expr mod: PINK1 expression modulation. PINK1 immunofluorescence, high-content cytometry, 24 h. Potency, µM (doses to about 76.6 µM), without a hit: at the top dose activation (PINK1 increase), hits mostly activators. 410,000 tested, 0.2% active. AID 624263; active = well fitted activation curve with a large enough effect; inconclusive = small, poorly fitted or top-dose-only effect; inactive = flat fitted curve, though single readings scatter; cell line not stated here;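 also: potency is read from the fitted curve at half-maximal effect; % of control where 0% means no effect; nearly all actives have a fitted effect of over 65% in size; a mitochondrial uncoupler was the plate control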
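Fluorescence from anti-PINK1 antibody, together with nuclear and cell stains, was scanned on a laser-scanning cytometer. Before staining, stable-line cells were incubated 24 hours with compounds at 5 concentrations; primary antibody 12 h at 10 degrees C.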
D2 ag: agonists of human D2 dopamine receptor (beta-arrestin); P14416; DiscoveRx PathHunter D2 beta-arrestin, luminescence, 90 min; 100% = 57 uM dopamine signal; activation, % (concentration not given with the values); 360,000 tested, 0.084% active; in the data active = activation above about 40%; inconclusive = about 15% to 40%; inactive = below about 15%; also: compound concentration not given in the record; the text of the record calls up to 30% inactive
Target sequence (P14416 whole entry, looked up): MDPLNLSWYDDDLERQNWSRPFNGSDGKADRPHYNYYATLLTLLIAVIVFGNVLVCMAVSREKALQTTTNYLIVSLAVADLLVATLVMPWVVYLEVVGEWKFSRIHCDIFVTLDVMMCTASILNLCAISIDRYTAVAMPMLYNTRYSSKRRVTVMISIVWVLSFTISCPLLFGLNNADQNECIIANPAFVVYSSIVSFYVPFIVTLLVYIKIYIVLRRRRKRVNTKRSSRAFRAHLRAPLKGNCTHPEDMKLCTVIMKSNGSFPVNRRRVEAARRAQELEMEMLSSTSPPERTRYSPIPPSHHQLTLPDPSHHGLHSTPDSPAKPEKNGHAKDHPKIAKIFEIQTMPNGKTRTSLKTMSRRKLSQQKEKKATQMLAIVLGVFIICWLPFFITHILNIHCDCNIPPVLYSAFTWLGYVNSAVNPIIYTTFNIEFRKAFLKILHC
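DiscoveRx PathHunter D2 beta-arrestin cells (2,100/well) attached overnight, then compound-stimulated 90 min at 37 C in HBSS/10 mM HEPES/0.1% Tween-20 buffer; beta-galactosidase complementation read by luminescence after 1 h at ambient temperature. Dopamine 57 uM final (EC100) as control.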
TRPML1 inh: human mucolipin-1 channel inhibition. TRPML1-inducible cells, Ca2+ dye fluorescence, FDSS; active compounds read low; inhibition of EC80 agonist-evoked calcium signal. Q9GZU1. 390,000 tested, 0.02% active. activity change, negative = inhibition, % (no concentration beside the values); in the data active means activity change below about -50%; inconclusive means about -30% to -50%; inactive means above about -30%;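 also: stimulus is agonist 54-4 at its EC80 concentration; % is scaled to controls: 0 for no effect and ±100 for the full control effect; compound concentration not given in the record; the text of the record puts the active cut at -80%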
Target sequence (Q9GZU1 whole entry, looked up): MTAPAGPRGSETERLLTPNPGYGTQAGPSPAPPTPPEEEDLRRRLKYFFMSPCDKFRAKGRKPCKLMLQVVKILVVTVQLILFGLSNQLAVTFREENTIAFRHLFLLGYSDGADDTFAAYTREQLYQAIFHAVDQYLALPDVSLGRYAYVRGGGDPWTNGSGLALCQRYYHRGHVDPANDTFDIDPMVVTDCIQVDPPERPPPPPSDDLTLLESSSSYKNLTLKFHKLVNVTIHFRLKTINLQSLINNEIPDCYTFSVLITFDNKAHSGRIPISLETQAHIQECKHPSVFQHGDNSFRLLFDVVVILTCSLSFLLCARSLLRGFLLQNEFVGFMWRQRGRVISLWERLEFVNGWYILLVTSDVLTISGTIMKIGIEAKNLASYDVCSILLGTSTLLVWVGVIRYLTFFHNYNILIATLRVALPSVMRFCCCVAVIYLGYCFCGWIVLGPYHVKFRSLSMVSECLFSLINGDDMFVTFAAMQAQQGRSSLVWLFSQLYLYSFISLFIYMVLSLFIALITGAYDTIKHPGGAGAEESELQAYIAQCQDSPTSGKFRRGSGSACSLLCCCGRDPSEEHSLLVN
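Calcium fluorescence in TRPML1-DL cells induced overnight with Tet: a 110 s read after compound pin addition, then a 110 s antagonist read after challenge with 54-4 at 4 uM final (EC80).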
TRPML1 agonist: agonists of human TRPML1 channel | Q9GZU1 | AID 624414 | TRPML1-expressing cells, Ca2+ dye fluorescence, FDSS; host cell line not named in the record; reference of the full effect not given here | 410,000 tested, 0.12% active | activation, % (concentration not given with the values); in the data active = activation above about 50%; inconclusive = about 30% to 50%; inactive = below about 30%; also: 0% is about no effect; the text of the record puts the active cut at 80%
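TRPML1-DL cells, Tet-induced overnight (~16 h, 37 degrees C), loaded 45-90 min at room temperature with Ca8 no-wash calcium dye plus quencher. FDSS fluorescence: 10 s baseline, compound pin-transfer, 110 s agonist read, then EC80 54-4 (4uM final) and 110 s antagonist read.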
D2 PAM: potentiates the human D2 dopamine receptor allosterically | potentiation, % (test concentration not listed) | DiscoveRx D2 beta-arrestin cells, luminescence, 90 min; 100% = 57 uM dopamine signal | 360,000 tested, 0.23% active; active = potentiation of 50% or more; inconclusive = 30% to 50%; inactive = 30% or less;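 also: compound concentration not given in the record; tested on top of an EC20 dose of dopamine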
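D2 cells co-treated with compound plus 50 nM dopamine (EC20) for 90 min at 37 deg C to detect potentiation. Beta-arrestin recruitment was read as enzyme-fragment luminescence after 1 h at ambient temperature. Full response was set by 57 uM dopamine.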
Six1-Eya2 inh: blocks human Six1 binding to Eya2 | Q15475+O00167 | AlphaScreen GST-Six1/His-Eya2 binding, biochemical; active compounds read low; control for the full effect not named in the record | activity change, % (test concentration not listed) | 360,000 tested, 0.56% active; in the data active = activity change below about -65%; inconclusive = about -30% to -65%; inactive = above about -30%; also: % is scaled to controls: 0 for no effect and ±100 for the full control effect
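Homogeneous AlphaScreen proximity assay pairing GST-Six1 with His-tagged Eya2 (added as 5X mix: 250 nM and 500 nM) in 50 mM Tris pH 8.0, 300 mM NaCl, 1 mM TCEP. Glutathione donor and nickel acceptor beads; 1 h, 37 °C, dark.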
An asterisk follows results filed as active; ? = inconclusive; . = not tested or not shown; & = joins results of further samples; [ ] = remark or other dose.

The opening 4 records as a preview:
no. | canonical_smiles | PINK1 expr mod | TRPML1 agonist | TRPML1 inh | D2 PAM | Six1-Eya2 inh | D2 ag
1 | CCc1n(CC(O)COC2CCCCC2)c2ccccc2[n+]1C (stereo unspecified) | 0.0% | 0.0 | 47.9 | -14.4 | 5.3 | 2.1
2 | CCOC(=O)[C@@H]1[C@H]2COc3cc(OC)ccc3[C@@H]2N2C(=O)N(c3ccc(Cl)cc3)C(=O)[C@@]12C | 0.2% | 3.5 | 17.6 | -8.4 | -4.3 | -4.2
3 | O=C(NC(=S)Nc1ccccc1O)c1cncc(Br)c1 | -1.0% | -0.2 | -3.7 | -19.8 | -20.1 | -10.5
4 | CC(=O)c1cccc(-n2nnnc2SCC(=O)NNC(=O)C(C)C)c1 | 1.2% | 1.0 | 6.9 | -2.6 | -1.1 | -2.9

The listing, repeating the preview:
no. | canonical_smiles | PINK1 expr mod | TRPML1 agonist | TRPML1 inh | D2 PAM | Six1-Eya2 inh | D2 ag
1 | CCc1n(CC(O)COC2CCCCC2)c2ccccc2[n+]1C (stereo unspecified) | 0.0% | 0.0 | 47.9 | -14.4 | 5.3 | 2.1
2 | CCOC(=O)[C@@H]1[C@H]2COc3cc(OC)ccc3[C@@H]2N2C(=O)N(c3ccc(Cl)cc3)C(=O)[C@@]12C | 0.2% | 3.5 | 17.6 | -8.4 | -4.3 | -4.2
3 | O=C(NC(=S)Nc1ccccc1O)c1cncc(Br)c1 | -1.0% | -0.2 | -3.7 | -19.8 | -20.1 | -10.5
4 | CC(=O)c1cccc(-n2nnnc2SCC(=O)NNC(=O)C(C)C)c1 | 1.2% | 1.0 | 6.9 | -2.6 | -1.1 | -2.9
5 | CC(Sc1nnc(-c2ccco2)n1C)C(=O)N(C)C1CCCCC1 (stereo unspecified) | 3.1% | -0.8 | 8.6 | -15.2 | 5.7 | -6.5
6 | COc1ccc(-c2cnnc(N/N=C/c3ccc(O)c(OC)c3)n2)cc1 | 7.3% | 1.8 | 28.5 | 12.0 | -2.9 | 9.8
7 | CC(=O)N1CCc2c(sc3c2c(=O)n(CCc2ccccc2)c(=O)n3Cc2cccc(C)c2)C1 | 0.2% | 0.0 | 57.9 | . | . | .
8 | CCOc1ccc2c(c1)cc(CN(C(=O)CC)C1CCCCC1)c1nnnn12 | -2.5% | 0.0 | 10.3 | -16.6 | -4.1 | -2.6
9 | CCCn1c(N)c(N(CCOC)C(=O)c2ccc(Cl)c([N+](=O)[O-])c2)c(=O)[nH]c1=O | 0.3% | 1.0 | -25.5 | -2.3 | 11.6 | 0.4
10 | Cc1ccc(C(=O)CCC(=O)OCC(=O)NNC(=O)c2ccccc2Cl)cc1 | 0.8% | 3.0 | 16.3 | 0.0 | 0.9 | 7.6
11 | CCC(C)(C)NC(=O)C(c1ccc(C)cc1)N(CC1CCCO1)C(=O)c1csnn1 (stereo unspecified) | -3.1% | 0.1 | 8.0 | -7.7 | 1.8 | -2.9
12 | Cc1ccccc1C(=O)Nc1ccccc1NC(=O)c1ccccc1Br | 2.7% | -0.9 | -26.4 | -1.0 | -12.5 | 2.5
13 | O=C(Nc1ccc(S(=O)(=O)NCC2CCCO2)cc1)c1cnccn1 (stereo unspecified) | -1.8% | 1.2 | 30.2 | -4.0 | 5.3 | 1.9
14 | COc1ccc(NC(=O)C(C)Sc2ccccc2)cc1 (stereo unspecified) | -2.5% | 0.0 | -19.2 | -3.5 | 3.1 | -1.2
15 | Cc1nc(C)c(Oc2cccc(C(F)(F)F)c2)c(=O)[nH]1 | 4.0% | 0.3 | -1.4 | -8.1 | 9.9 | -1.1
16 | COc1ccc(-c2nonc2NC(=O)c2oc3ccc(F)cc3c2C)cc1OC | 1.6% | -0.5 | 0.2 | 1.3 | 1.0 | 0.2
17 | CC1=C(C(N)=O)S(=O)(=O)c2ccccc21 | -0.3% | 1.6 | 18.8 | 4.6 | -1.0 | -2.1
18 | O=C(NNC(=S)Nc1ccccc1)c1ccccc1[N+](=O)[O-] | 0.2% | 0.2 | 18.6 | -14.0 | -2.8 | -9.7
19 | CC(C)C(=O)N(Cc1ccc2c(c1)OCO2)Cc1ccccn1 | 7.8%[38.3 µM] | -0.3 | -4.8 | -3.7 | 0.2 | -2.9
20 | Cc1c(C(=O)OCC(=O)NCc2ccco2)cccc1[N+](=O)[O-] | -0.7% | 0.0 | -8.4 | -21.2 | -11.8 | -1.5
21 | CCN1CCN(CC(O)COc2ccc(C)c(C)c2)CC1 (stereo unspecified) | -1.3%&0.3% | -0.3&-0.3 | 3.6&-8.1 | -22.2&-9.0 | 0.6&0.3 | 0.8&-1.6
22 | CC1(C)C([N+](=O)[O-])C(c2ccccc2O)NC(c2ccccc2O)C1[N+](=O)[O-] (stereo unspecified) | 5.5% | 0.2 | 0.1 | -9.9 | -7.4 | -3.3
23 | CCC(CC(C)(C)O)C(=O)NNC(=S)Nc1ccccc1 (stereo unspecified) | 0.5% | -0.3 | 12.5 | -0.4 | -0.7 | -1.0
24 | CC(C)Oc1ccc(C2c3c(oc4ccccc4c3=O)C(=O)N2CCCN2CCOCC2)cc1 (stereo unspecified) | ? | 0.5 | 4.9 | -9.8 | -0.3 | 1.6
25 | CCC(C(=O)Nc1cccc(C(=O)O)c1C)c1ccccc1 (stereo unspecified) | -0.4% | 1.3 | -8.7 | 0.2 | 6.3 | 1.6
26 | COc1ccc(NC(=O)C2CCN(S(=O)(=O)c3ccc4[nH]c(=O)ccc4c3)CC2)c(OC)c1 | 19.8% | 0.4 | 3.1 | . | . | .
27 | CNCCCOc1ccc(C)cc1Br | -3.7% | -0.8 | -1.0 | -12.3 | 1.9 | -2.3
28 | CC(C)CC(c1nnnn1Cc1ccc(F)cc1)N1CCC(C(N)=O)CC1 (stereo unspecified) | -0.1% | -0.5 | -6.4 | -7.8 | 9.1 | -1.2
29 | O=C(Cc1cccc(NC(=O)C2CCCN(C(=O)C3CC3)C2)c1)Nc1cccc(C(=O)N2CCCCC2)c1 (stereo unspecified) | -0.5% | 1.2 | -3.7 | -3.6 | 5.0 | -1.6
30 | Cc1ccccc1NC(=O)Nc1nnc(Cc2ccc([N+](=O)[O-])cc2)s1 | 4.4% | 0.4 | 15.6 | 0.5 | -9.1 | -2.0
31 | CCN(CC)CCNC(=O)c1ccc(NC(=O)C2CC(=O)N(CCc3ccc(OC)c(OC)c3)C2)cc1 (stereo unspecified) | 0.2% | -0.5 | -14.9 | -0.1 | 7.0 | -2.6
32 | Cc1ccc(C(=O)N/C(=C/c2cccc([N+](=O)[O-])c2)C(=O)NCC2CCCO2)cc1 (stereo unspecified) | 1.2% | 0.1 | 15.5 | 2.7 | -0.8 | -2.7
33 | C[C@H](CO)N1C[C@H](C)[C@@H](CN(C)C(=O)Nc2ccccc2F)OCc2cnnn2CCCC1=O | 3.3% | -0.3 | -3.7 | 7.0 | 1.0 | -1.9
34 | COc1ccc(OC(=O)NCCc2ccccc2)cc1 | -0.2% | 0.5 | -2.4 | 0.3 | 1.4 | -3.2
35 | [O-][N+]1=C2CCC/C(=N\O)C2=NC12CCCCC2 | . | 1.1 | -18.7 | 5.2 | 4.9 | -0.5
36 | Nc1c(C(=O)OCC2CCCO2)c2nc3ccccc3nc2n1-c1ccc2c(c1)OCCO2 (stereo unspecified) | 1.5% | 1.8 | 3.8 | 15.7 | 15.4 | -2.9
37 | COc1ccccc1-n1cc(CN2CCN(CC(C)C)C(CCO)C2)cn1 (stereo unspecified) | 0.0% | 0.2 | -3.6 | -2.0 | 1.8 | -1.8
38 | CCc1c(C)c2cc(Cl)c(O)c(CN3CCCCC3)c2oc1=O | 3.1%[38.3 µM] | -0.4 | -0.7 | 11.8 | 5.2 | 0.0
39 | CCCCN(CC)C(=O)CSc1nc2n[nH]c(C)c2c(=N)n1-c1cccc(C)c1 | 0.5%&1.4% | 3.1&4.4 | 35.7&51.6 | -8.1 | 4.1 | 4.1
40 | COc1cccc(NC(=O)Nc2cccnc2)c1 | 0.0% | 0.0 | 11.8 | 0.8 | 20.4 | -2.2
41 | CCS(=O)(=O)Nc1cc(-c2nc3cccnc3s2)ccc1C | 0.4% | 0.3 | 6.9 | -4.9 | -11.9 | 2.5
42 | CCOC(=O)N1CCN(c2nc(-c3cccs3)nc3ccccc23)CC1 | -0.6% | 3.2 | 34.3 | 3.5 | -17.4 | 6.6
43 | COc1ccc(C(=O)N=c2sccn2C)cc1 | -1.9% | -0.3 | 2.0 | -7.2 | -2.5 | 1.6
44 | Cc1cccc(C)c1NC(=O)CSCc1cccc(CSCC(=O)Nc2c(C)cccc2C)n1 | -0.2% | -0.3 | -12.4 | -1.6 | 5.7 | -0.3
45 | Cc1ccc(/C=C/c2nc3ccccc3s2)s1 | 0.4% | 0.3 | -0.8 | -11.5 | 79.1 | -3.3
46 | COc1ccc(C#Cc2ccc3c(c2)O[C@@H](CN(C)C(=O)Nc2cccc(OC)c2)[C@H](C)CN([C@@H](C)CO)S3(=O)=O)cc1 | 2.9% | 5.3 | -22.2 | -5.7 | -13.3 | -5.9
47 | COc1ccc(-c2cnnn2-c2ccc(NC(=O)/C=C/c3ccc(OC)c(OC)c3)cc2)cc1 | -0.4% | -0.6 | -26.5 | -2.7 | 1.7 | 1.1
48 | COc1ccc(N(C(=O)c2ccco2)S(=O)(=O)c2ccccc2)cc1 | 2.1%[38.3 µM] | 0.2 | 13.2 | 1.1 | -0.6 | -3.8
49 | O=C(O)Cn1cc(/C=C2\SC(=O)N(c3ccccc3)C2=O)c2ccccc21 | -1.4% | 0.1 | 8.6 | 5.7 | -7.3 | 2.9
50 | CC(NC(=O)COC(=O)CN1C(=O)c2ccccc2C1=O)c1ccccc1 (stereo unspecified) | -0.8% | 0.3 | -5.1 | 7.9 | 3.6 | -3.1

Looked up by structure from the entries so far, two records:
no. | canonical_smiles | PINK1 expr mod | TRPML1 agonist | TRPML1 inh | D2 PAM | Six1-Eya2 inh | D2 ag
32 | Cc1ccc(C(=O)N/C(=C/c2cccc([N+](=O)[O-])c2)C(=O)NCC2CCCO2)cc1 (stereo unspecified) | 1.2% | 0.1 | 15.5 | 2.7 | -0.8 | -2.7
29 | O=C(Cc1cccc(NC(=O)C2CCCN(C(=O)C3CC3)C2)c1)Nc1cccc(C(=O)N2CCCCC2)c1 (stereo unspecified) | -0.5% | 1.2 | -3.7 | -3.6 | 5.0 | -1.6

(more compounds)
no. | canonical_smiles | PINK1 expr mod | TRPML1 agonist | TRPML1 inh | D2 PAM | Six1-Eya2 inh | D2 ag
51 | CC(C)NC(=S)NN(c1ccccc1)c1ccccc1 | 3.2% | 1.2 | 1.8 | -12.0 | -4.2 | -4.8
52 | CC(C)(C)OC(=O)NCCCCCNC(=O)c1[nH]cnc1C(=O)Nc1ccccc1 | -0.6% | 2.5 | 8.7 | 5.8 | -20.2 | 5.1
53 | C/C(N)=C(/C#N)C(=O)CSc1nnnn1-c1ccc(C)cc1 | 1.9%[38.3 µM] | -0.5 | -5.3 | -10.9 | -0.5 | -1.8
54 | CCOC(=O)c1c(-c2ccccc2)oc2ccc(O)c(CN3CCOCC3)c12 | 0.1% | 0.2 | 23.1 | -2.1 | 5.1 | -4.2
